NPYLR7 agonist = mosquito NPYLR7 agonism | activation, % at 10 µM | hit rate 0.15% among 270,000 | HEK293T NPYLR7/Galpha15, GCaMP6s calcium fluorescence; in the data active = activation above about 40%;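 also: 0% = vehicle and 100% = reference agonist at the receptor; some compounds past the cut are filed as inactive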
NPYLR7 agonist max-min = second read-out of NPYLR7 agonist, no call of its own (marks repeat the call); activation, %; measured here: Max-Min RFU normalised activation; some inactives read as strong as hits;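 span of the calcium signal over five minutes; 0% = vehicle and 100% = native peptide agonist; compound fluorescence can raise it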
Starred values were filed as active, the others as inactive; & = joins results of further samples. The list is partial, so the mix of outcomes need not match the whole.

The line under a structure holds: NPYLR7 agonist max-min | NPYLR7 agonist
COCCNC(=O)c1cccc(CSc2nc(Cl)cc(N3CCCC3)n2)c1
 : 0.1 | -4.8
Cc1cccc(C(=O)Nc2nn(C)c3c2CC(C)C(=O)N3)c1 (stereo unspecified)
 : -22.0 | -15.1
CC1Cc2ccccc2N1CCNC(=O)c1cc(Cl)ccc1F (stereo unspecified)
 : 4.0 | 6.5
OC(CN1CCNCC1)Cn1c2ccc(Br)cc2c2cc(Br)ccc21 (stereo unspecified)
 : -24.5 | -18.4
Cc1nn(-c2ccc(Cl)nn2)c2c1C(c1ccccc1OC(C)C)CC(=O)N2 (stereo unspecified)
 : -4.9 | -3.9
Cc1c(C)c2c(c(C)c1O)CCC(C)(C(=O)NCCc1nc3ccccc3[nH]1)O2 (stereo unspecified)
 : 4.9 | 14.7
O=C1CCc2ccc(OCCCCN3CCN(c4cccc(Cl)c4Cl)CC3)cc2N1
 : -14.7 | -9.1
CN(C(=O)c1cccc(S(=O)(=O)N2CCOCC2)c1)c1ccccc1
 : 6.3 | 9.0
Cn1nnc2cc(C(=O)N3CCC4(CCCO4)CC3)cnc21
 : 0.2 | -0.8
CN1CCN(c2ncnc3ccc(-c4ccccc4CO)cc23)CC1
 : 5.4 | 11.7

(next part)
The line under a structure holds: NPYLR7 agonist max-min | NPYLR7 agonist
Nc1ncnc(Oc2cccc3cccnc23)c1[N+](=O)[O-]
 : 7.0 | 9.1
CCC(=O)C1=C(c2ccc(Br)cc2)N(C(=O)CC)n2c(C)nnc2S1
 : -0.2 | 4.7
Cc1ccc(N2CCCC(NC(=O)C3CC4CCC3O4)C2=O)cc1 (stereo unspecified)
 : 6.7 | 9.5
O=C(Oc1coc(CSc2ncccn2)cc1=O)c1cccc2ccccc12
 : -2.1 | -11.2
O=C(c1ccc2ccccc2c1)N1CCSC1c1ccc(C(F)(F)F)cc1 (stereo unspecified)
 : 7.6 | 5.3
Cc1c(C(=O)N2CCN(C(c3ccccc3)c3ccccc3)CC2)cc(-c2ccc(Cl)cc2)n1-c1ccccc1F
 : 4.5 | -3.3
CN(Cc1cccnc1)CC1CCN(CCc2ccc(Cl)cc2)CC1
 : -0.4 | 1.8
CCOC(=O)CC1CCCCN1C(=O)Nc1ccccc1F (stereo unspecified)
 : 5.7 | 7.9
COc1ccc(-c2noc(CNCc3csc(C)n3)n2)cc1
 : 3.3 | 6.1
N#CCCC(C#N)CN1CCC(c2ccc(F)cc2)C1 (stereo unspecified)
 : -1.3 | -0.9

(continued)
The line under a structure holds: NPYLR7 agonist max-min | NPYLR7 agonist
Cc1cc(C)c(NC(=O)c2ccc3c(c2)SC2=NS(=O)(=O)CCN23)c(C)c1
 : -1.4 | -0.5
CC(C)Nc1nc2n(c(=O)n1)CCN2C(C)C
 : -1.4 | -0.6
COc1c(F)cc(-c2c(-c3ccccc3)ncn2CCO)cc1Cl
 : 11.1 | 20.9
CCOC(=O)CCNC(=O)N1CCCC(C(=O)c2cc(C)c(OC)c(C)c2)C1 (stereo unspecified)
 : 5.3 | 5.3
CS(=O)(=O)N1CCN(c2ccc(NC(=O)COc3ccc([N+](=O)[O-])cc3)cc2)CC1
 : -5.5 | -0.3
CC(=O)N1CCN(c2cc(CNc3ccccn3)ccn2)CC1
 : -19.8 | -18.3
COc1ccccc1NS(=O)(=O)c1ccc2oc(SCCOc3ccccc3F)nc2c1
 : 8.7 | 17.1
CN(C)c1nc2c(c(N(C)Cc3cc(-c4cccs4)n[nH]3)n1)CCNC2
 : 2.1 | 5.6
CC1CCN(C(=O)Nc2ccc(S(N)(=O)=O)cc2)CC1
 : 4.4 | 4.8
CCOC(=O)c1nn(-c2ccc(C)cc2)c(=O)cc1NCc1ccc(F)cc1
 : 2.7 | 8.0

Other compounds:
The line under a structure holds: NPYLR7 agonist max-min | NPYLR7 agonist
CCn1nc(C)c(CNC(=O)c2cc(COc3cccc(C(F)(F)F)c3)on2)c1C
 : 0.9&-1.9 | 2.5&1.9
C=C1C(C)(C)[C@H]2CC[C@]1(C(=O)NCCc1nc3ccccc3c(=O)[nH]1)C2
 : -6.3 | -4.8
c1ccc(NNC2=Nc3cccc4cccc2c34)cc1
 : 21.5 | 2.9
Cc1ccc(-c2nc(C(N)=O)c3[nH]c(=O)n(-c4ccc(C(C)(C)C)cc4)c3n2)o1
 : 12.6 | 27.6
O=C(C=CNCCNC=CC(=O)C(F)(F)F)C(F)(F)F
 : 0.0 | 3.2
CC(C)C(C)NC(=O)Cn1nnc(-c2cccc(F)c2)n1 (stereo unspecified)
 : 5.9 | 14.3
O=C(Nc1ncc([N+](=O)[O-])s1)c1ccc(=O)n(Cc2cccc(C(F)(F)F)c2)c1
 : 7.3 | 13.8
COc1ccc(C2=NN(C(=O)c3ccc(Cl)cc3)C(c3cccc([N+](=O)[O-])c3)C2)cc1 (stereo unspecified)
 : -20.1 | -12.1
Cc1cc(F)c(C(=O)NCCSCC(C)(C)O)cc1F
 : 1.2 | 3.1
CN1C(=O)c2cc(NS(=O)(=O)CBr)ccc2Oc2ccccc21
 : 1.5 | 6.8

More results
The line under a structure holds: NPYLR7 agonist max-min | NPYLR7 agonist
CC(=O)NC(C)(C(=O)OCc1cc(Cl)c2nccn2c1)C1CC1 (stereo unspecified)
 : -3.4 | -1.8
CCC(=O)c1ccc(OCC(=O)Nc2ccc(C(=O)N3CCCC3)cc2)cc1
 : 0.0 | 0.0
O=S(=O)(N1CCCCC1)N1CCc2sccc2C1c1ccccc1 (stereo unspecified)
 : 5.9 | 5.0
COc1ccccc1NC(=O)c1sc2nc3n(c(=O)c2c1C)CCC3
 : -2.0 | -0.4
C[C@H](C(=O)NCc1ccc(N(C)C)cc1)N1Cc2ccc(-c3ccnn3C)nc2C1=O
 : -15.1 | -12.9
COc1ccc2c(c1)C(=O)N(C)C1(CCN(CC3CC3)CC1)N2
 : 0.9 | 4.0
COc1c(C)cnc2c1c(=O)n(CC(=O)N(C(C)C)C(C)C)c(=O)n2C
 : -0.5 | 0.1
C=CCn1c(=O)c2ccccc2n2c(SCC(=O)N(C)Cc3ccc(N(C)C)cc3)nnc12
 : 0.3 | 1.7
COc1ccc(Oc2ccc([N+](=O)[O-])cc2C(=O)NC(c2ccc(F)cc2)c2ccc(SCc3ccccc3)cc2)cc1 (stereo unspecified)
 : 4.4 | 11.3
O=C1CNC(=O)N1Cc1nc(CCc2ccccc2)n[nH]1
 : 0.9 | 4.1

(next part)
The line under a structure holds: NPYLR7 agonist max-min | NPYLR7 agonist
Cc1ccc2sc(N(CCCN(C)C)C(=O)c3ccc(S(=O)(=O)N(C)C)cc3)nc2c1C
 : 0.6 | 2.4
Cc1nnc(SCC(=O)Nc2ccc(I)cc2C)s1
 : 1.4 | 3.6
O=C(Cc1csc(-c2ccsc2)n1)NCc1ccccc1
 : -9.6 | -7.9
O=C(Cn1cnnn1)N1CCC(n2c(Cc3ccccc3)nc3ccccc32)CC1
 : 1.8 | 4.1
C=CCOc1ccc(C(=O)Nc2ncn[nH]2)cc1
 : -5.0 | -4.9
CN(Cc1cnn(C)c1)Cc1nc(-c2cccnc2)no1
 : -2.9 | -1.4
CCNC(=O)OC1CCN(C(=O)Cc2ccc(OC)cc2)CC(=O)N(C)c2ccccc21 (stereo unspecified)
 : 11.4 | 2.0
Cc1cc(C)nc(NCc2ccc(N3CCC(O)CC3)c(F)c2)n1
 : 11.1 | 10.0
COC(=O)C(C)(Cc1ccccc1)NC(=O)c1csc(COC(=O)c2ccccc2)n1 (stereo unspecified)
 : -10.4 | -7.6
COc1ccc(CCNC(=O)NCc2c(C)n[nH]c2C)c(Cl)c1
 : -5.9 | -3.2

Continuation.
The line under a structure holds: NPYLR7 agonist max-min | NPYLR7 agonist
C#CCOCC(O)CN(Cc1cccc(C)c1)Cc1ccco1 (stereo unspecified)
 : 9.3 | -1.1
COc1cccc(CN2CCCC(O)(CNC3CCCCC3)C2=O)c1 (stereo unspecified)
 : -0.5 | 1.1
O=c1cc(-c2ccccc2)oc2cccc(O)c12
 : -14.3 | -7.5
Cc1cc(NCc2ccccn2)n2c(nc3ccccc32)c1C#N
 : 10.0 | 4.4
C=CCC1(CC=C)CCCN1Cc1cn[nH]c1-c1cc(OC)c(OC)c(OC)c1
 : 3.3 | 7.4
O=C1NC(c2ccccc2)=C(c2ccc3ccccc3n2)C(c2ccncc2)N1 (stereo unspecified)
 : -6.1 | -6.2
N#CCc1ccc(NC(=O)COc2cccc(F)c2)cc1
 : -2.7 | -1.2
CCCOC1CCCN(C(=O)c2cc(Cn3nc(C)cc3C)[nH]n2)C1 (stereo unspecified)
 : 10.9 | 15.7
Cc1ccc(CC(C)NS(=O)(=O)C2CCOCC2)s1 (stereo unspecified)
 : -9.6 | -8.6
CCOC(=O)c1cc2cc(C(=O)O)ccc2[nH]1
 : 1.2 | -3.5

Sorted by number of heavy atoms (smallest number first): part of the list above.
The line under a structure holds: NPYLR7 agonist max-min | NPYLR7 agonist
CCOC(=O)c1cc2cc(C(=O)O)ccc2[nH]1
 : 1.2 | -3.5
O=C(C=CNCCNC=CC(=O)C(F)(F)F)C(F)(F)F
 : 0.0 | 3.2
Cc1c(C)c2c(c(C)c1O)CCC(C)(C(=O)NCCc1nc3ccccc3[nH]1)O2 (stereo unspecified)
 : 4.9 | 14.7

Additional results
The line under a structure holds: NPYLR7 agonist max-min | NPYLR7 agonist
Cn1cnc(S(=O)(=O)NCc2cccc(C#N)c2)c1Cl
 : 0.7 | 1.1
CN(C(=O)CSc1ccc(S(=O)(=O)N2CCOCC2)cn1)C1CCCCC1
 : 1.8 | 2.3
Nc1ccc2c(c1)OC1(CCCC1)O2
 : 21.9 | 14.8
COc1ccc(/C=C/c2nc3ccccc3n2C(F)F)cc1O
 : -5.6 | -4.7
COc1cccc(S(=O)(=O)N2CCN(Cc3cc(=O)c(OCc4cc(C)cc(C)c4)co3)CC2)c1
 : -8.3 | -1.4
COc1ccc(OC2CCN(C3CCCC3)CC2)c(C(=O)N2CCNC(=O)CC2)c1
 : 0.7 | 3.0
O=C(COc1ccccc1F)N1CCN(c2ccc3nnc(-c4ccco4)n3n2)CC1
 : 6.9 | 1.1
CCCCN(C)c1c(CC)nc2ccc(C(=O)N3CCC(O)(Cc4ccccc4)CC3)cn12
 : -6.2 | 3.6
COc1cc2c(cc1OC)C(c1ccccc1Cl)N(C(=O)c1ccc(-c3cccc(C(F)(F)F)c3)s1)CC2 (stereo unspecified)
 : 11.6 | 11.3
CCc1cnc(C)nc1NC(CN(C)C)c1ccccc1 (stereo unspecified)
 : 1.2&1.6 | 3.5&-1.3

Continued:
The line under a structure holds: NPYLR7 agonist max-min | NPYLR7 agonist
COc1cc2c(cc1OC)C1CN(C(=O)Nc3ccc(F)cc3)CC(=O)N1CC2 (stereo unspecified)
 : -4.7 | -7.3
Cc1nc(C)c(Cc2ccc([N+](=O)[O-])cc2)c(N2CCN(C(=O)c3ccc(Br)cc3)CC2)n1
 : 13.1 | 14.3
CC(Cc1cnccn1)NC(=O)CCc1nnc(CCC2CCCCC2)o1 (stereo unspecified)
 : 24.7 | 26.0
Oc1ccc(C=NN2CCCCC2)c(O)c1
 : 3.2 | -3.1
COCc1cc(C(=O)N2Cc3ccccc3N(C)CC2C)no1 (stereo unspecified)
 : 0.6 | -0.3
Nc1nc2c(s1)CN(Cc1ncccc1C(=O)O)CC2
 : 5.4 | 6.1
CCOC(=O)c1ccccc1NC(=O)CSc1cn(CC(=O)N2CCCCCC2)c2ccccc12
 : 19.9 | 20.2
CC(C)n1ccnc1CN(C)Cc1cnn(-c2ccc(F)cc2)c1
 : 9.0 | 11.1
CCC1(C)NC(=O)N(CC(=O)NC(c2ccccc2)c2ccccc2)C1=O (stereo unspecified)
 : -0.4 | 2.6
CCC(C)NC(=O)Cn1nnc(-c2ccc(F)cc2)n1 (stereo unspecified)
 : 10.2&3.9 | 7.6&12.7
O=C1c2ccccc2C(=O)c2c(Br)cccc21
 : -19.5 | -9.7
CC1CCCCC1OC(=O)NC(C(F)(F)F)C(F)(F)F (stereo unspecified)
 : -13.3 | -5.7

A second format for 18 compounds above:
mol	NPYLR7 agonist max-min	NPYLR7 agonist
CCOC(=O)CCNC(=O)N1CCCC(C(=O)c2cc(C)c(OC)c(C)c2)C1 (stereo unspecified)	5.3	5.3
CS(=O)(=O)N1CCN(c2ccc(NC(=O)COc3ccc([N+](=O)[O-])cc3)cc2)CC1	-5.5	-0.3
CC(=O)N1CCN(c2cc(CNc3ccccn3)ccn2)CC1	-19.8	-18.3
COc1ccccc1NS(=O)(=O)c1ccc2oc(SCCOc3ccccc3F)nc2c1	8.7	17.1
CN(C)c1nc2c(c(N(C)Cc3cc(-c4cccs4)n[nH]3)n1)CCNC2	2.1	5.6
CC1CCN(C(=O)Nc2ccc(S(N)(=O)=O)cc2)CC1	4.4	4.8
CCOC(=O)c1nn(-c2ccc(C)cc2)c(=O)cc1NCc1ccc(F)cc1	2.7	8.0
CCn1nc(C)c(CNC(=O)c2cc(COc3cccc(C(F)(F)F)c3)on2)c1C	0.9&-1.9	2.5&1.9
C=C1C(C)(C)[C@H]2CC[C@]1(C(=O)NCCc1nc3ccccc3c(=O)[nH]1)C2	-6.3	-4.8
c1ccc(NNC2=Nc3cccc4cccc2c34)cc1	21.5	2.9
Cc1ccc(-c2nc(C(N)=O)c3[nH]c(=O)n(-c4ccc(C(C)(C)C)cc4)c3n2)o1	12.6	27.6
O=C(C=CNCCNC=CC(=O)C(F)(F)F)C(F)(F)F	0.0	3.2
CC(C)C(C)NC(=O)Cn1nnc(-c2cccc(F)c2)n1 (stereo unspecified)	5.9	14.3
O=C(Nc1ncc([N+](=O)[O-])s1)c1ccc(=O)n(Cc2cccc(C(F)(F)F)c2)c1	7.3	13.8
COc1ccc(C2=NN(C(=O)c3ccc(Cl)cc3)C(c3cccc([N+](=O)[O-])c3)C2)cc1 (stereo unspecified)	-20.1	-12.1
Cc1cc(F)c(C(=O)NCCSCC(C)(C)O)cc1F	1.2	3.1
CN1C(=O)c2cc(NS(=O)(=O)CBr)ccc2Oc2ccccc21	1.5	6.8
CC(=O)NC(C)(C(=O)OCc1cc(Cl)c2nccn2c1)C1CC1 (stereo unspecified)	-3.4	-1.8

Source: PubChem BioAssay
